Sa growth 42C = blocks Staphylococcus aureus growth; S. aureus RN4220 growth, OD600, 20 h, 42 °C; hits give low values; relative growth, % (concentration not given with the values); hit rate 0.53% among 170,000;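 active = growth at 42 °C up to 50% and 20 or more points under that at 30 °C, or under 10% at both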;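 note: 300 nL library stock went into each well; scaled to the means of positive and negative controls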
HCMV NEC inh = disrupts HCMV UL50-UL53 complex binding. HTRF UL50-UL53 interaction, normalized percent inhibition. AID 1918969. inhibition, % (concentration not given with the values). hit rate 0.15% among 190,000;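 active = both replicates at 50% or more, plus weaker picks with an unusually low signal ratio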;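 note: stock transfer was 100 nL into about 20 µL; 0% = negative control wells and 100% = wells with untagged competitor protein; inactives centre near -12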
GIV-Gai inh = inhibitors of GIV GBA-motif binding to rat Galpha-i3; P08753; Galpha-i3/FITC-GIV peptide fluorescence polarization, 90 min; hits give low values; scaled: aluminum fluoride 0%, vehicle 100%; percent of control (FP), % (no concentration beside the values); hit rate 0.42% among 210,000; AID 1224905;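 active = replicate mean at 85% of control or lower, very high polarization wells dropped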;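 note: wells of about 15 µL received 100 nL stock; the first replicate is given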
Target sequence (P08753 whole entry, looked up): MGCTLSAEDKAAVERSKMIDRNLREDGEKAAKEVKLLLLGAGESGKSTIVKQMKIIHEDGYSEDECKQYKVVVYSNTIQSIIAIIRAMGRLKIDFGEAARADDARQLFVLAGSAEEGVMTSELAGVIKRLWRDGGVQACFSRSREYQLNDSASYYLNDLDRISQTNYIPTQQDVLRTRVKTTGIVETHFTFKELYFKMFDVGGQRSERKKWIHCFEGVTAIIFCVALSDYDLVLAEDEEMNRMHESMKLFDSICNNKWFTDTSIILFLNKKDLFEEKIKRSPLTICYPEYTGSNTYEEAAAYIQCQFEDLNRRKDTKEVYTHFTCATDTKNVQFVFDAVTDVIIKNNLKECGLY
Sa growth 42C second temp = recorded beside Sa growth 42C, whose call it bears; relative growth, %; measured here: growth at 30 °C;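 optical density after 20 h as mean of two plates; 100% = untreated growth and lower means inhibition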
* = called active by the depositor; x = no result given; & = joins results of further samples.

Fields – Sa growth 42C	Sa growth 42C second temp	HCMV NEC inh	GIV-Gai inh
1	CC12CCC(C1)C(C)(C)C2NC(=O)C1CCC1 (stereo unspecified)
→ 81	79	-18	101
2	Cc1cc(C)cc(NC(=O)COc2cccc3c(=O)n(C)ccc23)c1
→ 121	91	x	97&102
3	CC(=O)Nc1cccc(N=Cc2cc(Br)ccc2O)c1
→ 102	108	5	103
4	COc1ccccc1-c1nnc(C2CCN(C(=O)c3ccc(Cl)cc3)CC2)o1
→ 104	85	-9&-10	112&99
5	CCn1c(C(=O)N2CCC(C(=O)NCCCc3ccccc3)CC2)cc2sccc21
→ 95	86	-14	102
6	C=CCN(CC=C)C(=O)C1CCN(Cc2cc(Br)c(O)c(OC)c2)CC1
→ 82	88	9	98
7	Cc1cc(=O)[nH]c(-n2nc(C)cc2NC(=O)C(C)(C)Oc2ccc(Cl)cc2)n1
→ x	x	-21	100
8	CC(CCc1ccccc1)NCc1c(C(=O)O)n(Cc2ccc(F)cc2Cl)c2ccccc12 (stereo unspecified)
→ 42	29	x	105
9	O=C(O)C1CC(=O)N(C2CC2)C1 (stereo unspecified)
→ 102	100	13	104
10	CC(C)c1nc2c(c(=O)[nH]1)CCN(Cc1ccccc1)C2
→ x	x	-36	102
11	CCn1c(C)c(C)c2cc(C(=O)NCCc3cc(OC)c(OC)c(OC)c3)ccc21
→ 83	89	x	115
12	Cc1nc2scc(-c3ccc(Br)cc3)c2c(=O)o1
→ x	x	-15	105
13	Cc1ccc(CCNC(=O)C2CCCN2S(=O)(=O)c2ccc3c(c2)C(C)(C)C(=O)N3C)cc1 (stereo unspecified)
→ x	x	11	103
14	O=C(O)CSc1nc2ccccc2c(=O)n1-c1ccccc1
→ 110	92	-18	96
15	CCn1c(SCC#N)nnc1-c1ccc(S(=O)(=O)N2CCCC2)cc1
→ 105	106	-2	99
16	CN(CCCn1cnc2c([nH]c3ccc(Cl)cc32)c1=O)C1CCCCC1
→ 115	92	-5	115
17	CCOC(=O)C1CCCN(C(=O)CSCc2nc(-c3ccc(Cl)cc3)oc2C)C1 (stereo unspecified)
→ 81	76	-12	104
18	CCc1ccc(CNC(=O)C2CCN(C(=O)c3ccc(-n4ccc5ccccc54)s3)CC2)cc1
→ 100	96	x	104
19	COc1cc(CNCc2cccc(C(F)(F)F)c2)cc(OC)c1
→ 87	93	x	108
20	CC1(C)CC(NCCNC2=CC(=C(C#N)C#N)CC(C)(C)C2)=CC(=C(C#N)C#N)C1
→ 104	91	0	x
21	c1cc2c3c(cccc3c1)C(N1CCOCC1)=N2
→ 87	91	-59	x
22	Cc1ccc(N=CC2=C(O)CCCC2=O)cc1
→ 103	92	-17	101
23	COC(=O)C1=C(N)OC(OC)=C(C#N)C1c1ccncc1 (stereo unspecified)
→ 105	100	-24	x
24	O=C(Nc1ccccc1)Nc1ccc(Cl)c(Cl)c1
→ 2.1*	2.4*	3&-21	x
25	COc1ccc(NC(=O)C2CCCN2S(=O)(=O)c2ccc(F)cc2)cc1 (stereo unspecified)
→ x	x	9	107
26	Cc1ccc(C)c(C(=O)Cn2nc3n(CC(C)C)c(=O)c4ccc(C(=O)NC5CCCC5)cc4n3c2=O)c1
→ x	x	-1	105
27	Cn1c2c(c(=O)n3ncnc13)CCCC2
→ 99	95	-7	107
28	CCCCOc1ccc(/C=C2/N=C(c3cc(OC)c(OC)c(OC)c3)OC2=O)cc1
→ x	x	-14	97
29	CCC(=O)N=c1sc2c(OC)ccc(OC)c2n1CC
→ 88	80	-30	99
30	Cc1cc(C)c2c(c1C(=O)Nc1cccc(C(F)(F)F)c1)CC(C)(C)C2=O
→ 70	80	-26	102

In another format: entries from further up.
(8) CC(CCc1ccccc1)NCc1c(C(=O)O)n(Cc2ccc(F)cc2Cl)c2ccccc12 (stereo unspecified)
  Sa growth 42C: 42
  Sa growth 42C second temp: 29
  HCMV NEC inh: x
  GIV-Gai inh: 105

(6) C=CCN(CC=C)C(=O)C1CCN(Cc2cc(Br)c(O)c(OC)c2)CC1
  Sa growth 42C: 82
  Sa growth 42C second temp: 88
  HCMV NEC inh: 9
  GIV-Gai inh: 98

Additional records follow:
Fields – Sa growth 42C	Sa growth 42C second temp	HCMV NEC inh	GIV-Gai inh
31	COc1ccc(C2C(C#N)=C(N)OC3=C2C(=O)CC(c2ccccc2)C3)c(OC)c1 (stereo unspecified)
→ x	x	-13	108
32	OC(COc1ccc(Br)cc1)CN1CCN(c2nc(-c3ccccc3)ns2)CC1 (stereo unspecified)
→ 83	73	-10	100
33	CN(C)c1ccc(CNC(=O)C2CCN(C(=O)c3ccc(-n4ccc5ccccc54)s3)CC2)cc1
→ 122	87	x	106
34	Cc1sc2ncn3c(SCC(=O)Nc4ccc5c(c4)OCCO5)nnc3c2c1C
→ x	x	-22	113
35	CCCCOC1COC(OCCCC)CO1 (stereo unspecified)
→ 101	87	-24	x
36	O=C(CN(CCc1ccc(F)cc1)CC(=O)N1CCc2ccccc21)N1CCc2ccccc21
→ 116	93	-8	x
37	Cc1cccc(CSc2nc3cccnc3n2Cc2ccc(C(=O)NCc3ccco3)cc2)c1
→ 97	104	x	103
38	O=C(CN1C(=O)CSc2cc(S(=O)(=O)N3CCCC3)ccc21)NCc1ccccc1
→ 100	88	x	101
39	O=C(NCc1cccs1)c1ccc(CSc2nc3ccncc3n2Cc2ccccc2F)cc1
→ 97	90	8	104
40	O=C(NCc1n[nH]c(=S)n1-c1ccccc1)c1ccc(S(=O)(=O)N2CCCCC2)cc1
→ 95	94	5	105
41	COc1ccc(CCN2C(=S)NC3CC2(C)Oc2c(OC)cc(Br)cc23)cc1OC (stereo unspecified)
→ 101	77	x	106
42	O=C1NC(C2CC=CCC2)Nc2ccccc21 (stereo unspecified)
→ 107	88	-10	107
43	CC(C)N(C(=O)Cn1cnc2ccccc21)C(C)C
→ 85	78	18	103
44	O=C1CC(c2ccc(-c3ccccc3)cc2)C2=C(CCCC2=O)N1 (stereo unspecified)
→ 101	79	2	107
45	COc1cccc(CNC(=O)CSc2nnc(C)c3c(C)n(-c4ccccc4)nc23)c1
→ 94	94	x	106
46	Cn1c(N)c(C(=O)CN2c3cccc4cccc(c34)S2(=O)=O)c(=O)n(C)c1=O
→ 104	97	-35	x
47	O=S1(=O)CCC(N(CC2CCCO2)S(=O)(=O)C2=Cc3ccccc3CC2)C1 (stereo unspecified)
→ 98	94	6	x
48	CCSc1nc2ccccc2c(OCc2ccc(Cl)cc2)c1C(=O)OC
→ 70	72	x	99
49	O=C(c1cc2c(s1)CCC2)N1CCc2ccccc21
→ 95	85	-29	x
50	CCc1ccccc1NC(=O)[C@@H](c1ccccc1)N1Cc2ccccc2C1=O
→ 94	70	-18	102
51	COC(=O)c1cc(-c2ccc(Cl)cc2)nc2onc(C(C)C)c12
→ 84	86	-39	x
52	Cc1nc2ccccc2n1C1CC(=O)N(c2ccccc2)C1=O (stereo unspecified)
→ 108	101	14	105
53	O=C(Nc1ccccc1C(F)(F)F)C1c2ccccc2Oc2ccccc21
→ 91	74	x	99
54	COc1ccc(-c2nn(CN(C)C3CCCCC3)c(=S)n2CC2CCCO2)cc1 (stereo unspecified)
→ 93	88	7	x
55	Cc1cc(C)c2c(=O)n(C(=O)c3ccc(Cl)cc3)sc2n1
→ 95	87	-16	137
56	CC1CC(C)CN(S(=O)(=O)c2ccccc2)C1 (stereo unspecified)
→ 125	101	-23	92
57	CCCN(CCC)CCNC(=O)CS(=O)Cc1nc(-c2ccc(OC)c(OC)c2)oc1C (stereo unspecified)
→ 88	88	-34	102
58	CCC(=O)NCCSc1c[nH]c2ccccc12
→ 106	97	x	103
59	COc1ccc2c(C)c(CC(=O)NCCc3ccc(Cl)cc3)c(=O)oc2c1C
→ 96	90	5	101
60	COc1cc(OC)cc(-c2noc(CSc3ccc(-c4ccccc4)nn3)n2)c1
→ x	x	-18	103

By substructure, those above with two or more sulfur atoms.
Fields – Sa growth 42C	Sa growth 42C second temp	HCMV NEC inh	GIV-Gai inh
15	CCn1c(SCC#N)nnc1-c1ccc(S(=O)(=O)N2CCCC2)cc1
→ 105	106	-2	99
34	Cc1sc2ncn3c(SCC(=O)Nc4ccc5c(c4)OCCO5)nnc3c2c1C
→ x	x	-22	113
38	O=C(CN1C(=O)CSc2cc(S(=O)(=O)N3CCCC3)ccc21)NCc1ccccc1
→ 100	88	x	101
39	O=C(NCc1cccs1)c1ccc(CSc2nc3ccncc3n2Cc2ccccc2F)cc1
→ 97	90	8	104
40	O=C(NCc1n[nH]c(=S)n1-c1ccccc1)c1ccc(S(=O)(=O)N2CCCCC2)cc1
→ 95	94	5	105
47	O=S1(=O)CCC(N(CC2CCCO2)S(=O)(=O)C2=Cc3ccccc3CC2)C1 (stereo unspecified)
→ 98	94	6	x

New compounds follow.
Labels used below – A = Sa growth 42C; B = Sa growth 42C second temp; C = HCMV NEC inh; D = GIV-Gai inh
[61] CCOC(=O)c1cccc(NC(=O)N2CCC(CN3CCc4ccccc4C3)CC2)c1
  A = 98; B = 95; C = x; D = 105
[62] CC1CCCCN1S(=O)(=O)c1cc2c(=O)nc3ccccn3c2cc1Cl (stereo unspecified)
  A = 112; B = 89; C = x; D = 101
[63] COc1ccc(O)c(C2(O)C(=O)c3ccccc3C2=O)c1
  A = 69; B = 95; C = -20; D = x
[64] COc1ccc(C(=O)Nc2ccc(OC)c(CN3CCn4c(nc5ccccc54)C3)c2)cc1
  A = x; B = x; C = -25; D = 96
[65] COc1cccc(OC)c1C(=O)OCC(=O)NC1CCCCC1C (stereo unspecified)
  A = 92; B = 89; C = -10; D = x
[66] CCCOc1cccc(C(=O)Nc2ccc(C(=O)OC)cc2)c1
  A = 106; B = 67; C = x; D = 103
[67] O=C(Cc1csc(NC(=O)Nc2ccccc2)n1)Nc1ccc2c(c1)OCO2
  A = x; B = x; C = -17; D = 107
[68] CCC(=O)NC(C)C(c1cccs1)N1CCN(Cc2ccccc2)CC1 (stereo unspecified)
  A = 97; B = 91; C = 0; D = 100
[69] CCC12CN3CC(CC)(CN(C1)C3c1ccc(C(C)C)cc1)C2O (stereo unspecified)
  A = x; B = x; C = -11; D = 95
[70] Cc1oc2ccccc2c2nn(C)c(=O)c1-2
  A = 102; B = 91; C = -13; D = 102
[71] O=C(CSc1nc(O)cc(=O)n1-c1ccccc1)N1CCc2ccccc21
  A = 92; B = 103; C = 0; D = 117
[72] Cc1ccc(C(=O)CCC(=O)Nc2cccc3ccccc23)cc1
  A = 89; B = 87; C = x; D = 119
[73] COc1ccccc1N1CCN(CC(N)=O)CC1
  A = 104; B = 86; C = -12; D = 105
[74] CC(C)Cc1nnc(NC(=O)CCCN2C(=O)CCC2=O)s1
  A = 96; B = 84; C = -31; D = 104
[75] CCOc1ccc(C2CC(=O)NC3=C2C(=O)CCC3)cc1 (stereo unspecified)
  A = 114; B = 91; C = 0; D = 107
[76] Cc1c(C(=O)Nc2ccc(S(N)(=O)=O)cc2)nnn1-c1ccccc1
  A = x; B = x; C = -23; D = 97
[77] Cc1cc(C(=O)N2CCN(Cc3ccccc3)CC2)n[nH]1
  A = 89; B = 88; C = x; D = 102
[78] O=C(Cn1nc2n(CCc3ccccc3)c(=O)c3ccccc3n2c1=O)Nc1ccc2c(c1)OCO2
  A = x; B = x; C = 14; D = 106
[79] CC(C)N1CCc2c(sc(NC(=O)C3=COCCO3)c2C(N)=O)C1
  A = 88; B = 83; C = -63; D = 278
[80] CC(C)NC(=O)N1[C@H](c2cccs2)[C@@H](C)C(=O)[C@@H](C)[C@@H]1c1cccs1
  A = 96; B = 83; C = -15; D = 94
[81] Cn1c(=O)n(C)c2cc(N3CCCCC3)c(NC(=O)Nc3ccc(Br)cc3)cc21
  A = 113; B = 86; C = -7; D = 101
[82] CCn1c(SCC(=O)c2ccccc2)nnc1-c1c[nH]c2ccccc12
  A = 91; B = 73; C = -33; D = 97
[83] CCN(C(=O)c1cc2c(=O)oc3ccccc3c2n1C)c1ccccc1
  A = x; B = x; C = 15; D = 98
[84] COc1cccc(C(=O)NC(=S)Nc2ccc(O)c(-c3nc4ccccc4s3)c2)c1
  A = 95; B = 85; C = x; D = 96
[85] Cc1ccc(Cn2c(=O)c3ccccc3n3c(=O)n(CC(=O)c4ccc(C)cc4C)nc23)cc1
  A = x; B = x; C = -31; D = 98

Random excerpt: 2 records from the list, in no set order.
Labels used below – A = Sa growth 42C; B = Sa growth 42C second temp; C = HCMV NEC inh; D = GIV-Gai inh
[73] COc1ccccc1N1CCN(CC(N)=O)CC1
  A = 104; B = 86; C = -12; D = 105
[85] Cc1ccc(Cn2c(=O)c3ccccc3n3c(=O)n(CC(=O)c4ccc(C)cc4C)nc23)cc1
  A = x; B = x; C = -31; D = 98

Screens as filed in PubChem.
